Screening results: PubChem, Johns Hopkins Ion Channel Center
KCNQ2 block = KCNQ2 potassium channel inhibitors, primary screen, cell-based, CHO-K1, FluxOR thallium flux, B-score (AID 2156). 20 min; hits give low values; only compounds with negative scores are shown here; some inactives read as strong as hits. B-score at 10 µM. 310,000 compounds, 1.1% hits;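 active = fluorescence ratio B-score at most minus 3 library SDs, with starting brightness B-score within 2 library SDs, cut at about -5.5 in these data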
Target sequence (O88943 whole entry, looked up): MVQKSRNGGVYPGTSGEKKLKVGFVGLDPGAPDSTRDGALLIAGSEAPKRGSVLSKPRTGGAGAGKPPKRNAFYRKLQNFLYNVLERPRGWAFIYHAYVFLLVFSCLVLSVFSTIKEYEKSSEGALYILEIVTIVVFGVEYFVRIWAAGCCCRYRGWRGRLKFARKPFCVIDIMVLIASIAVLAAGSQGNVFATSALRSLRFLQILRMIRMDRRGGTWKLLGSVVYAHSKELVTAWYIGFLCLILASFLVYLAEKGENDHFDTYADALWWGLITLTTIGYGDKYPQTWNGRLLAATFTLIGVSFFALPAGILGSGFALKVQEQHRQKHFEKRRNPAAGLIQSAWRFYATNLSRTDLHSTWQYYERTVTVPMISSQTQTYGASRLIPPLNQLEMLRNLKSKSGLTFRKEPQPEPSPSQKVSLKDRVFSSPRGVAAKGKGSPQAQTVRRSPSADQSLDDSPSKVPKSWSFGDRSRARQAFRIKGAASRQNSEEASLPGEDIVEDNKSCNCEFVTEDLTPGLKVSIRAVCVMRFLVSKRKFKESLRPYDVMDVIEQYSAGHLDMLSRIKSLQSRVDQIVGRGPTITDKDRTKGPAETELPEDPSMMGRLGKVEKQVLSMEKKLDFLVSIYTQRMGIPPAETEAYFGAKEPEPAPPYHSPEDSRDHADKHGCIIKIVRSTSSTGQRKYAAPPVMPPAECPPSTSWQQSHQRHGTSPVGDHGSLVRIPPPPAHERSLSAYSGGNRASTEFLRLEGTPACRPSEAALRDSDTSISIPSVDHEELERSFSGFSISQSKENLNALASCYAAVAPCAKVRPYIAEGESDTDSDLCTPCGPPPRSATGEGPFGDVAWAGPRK
KCNQ2 block baseline = further read-out of KCNQ2 block, marked with its call; B-score; measured here: initial fluorescence intensity artifact check;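 brightness before thallium and not channel activity; 0 = typical well and far values either way flag optical interference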
* = called active by the depositor. This is a subset (hit frequency here may not be typical).

Results for COc1cc(NC(=O)c2ccccc2Cl)ccc1NC(=O)c1ccco1 ?
KCNQ2 block: inactive; KCNQ2 block baseline: -0.05

Results for COc1ccc(/C=C/C(=O)NCCCn2ccnc2)cc1 ?
KCNQ2 block: inactive; KCNQ2 block baseline: 1.78

How did COc1ccc(NC(=O)CN(C)C(C)C(=O)N2CCCCC2)cc1 (stereo not drawn) do in these assays?
KCNQ2 block: inactive; KCNQ2 block baseline: -1.25

How did CN1C(=O)OC(C)(CCc2ccccc2)C1(C)O (stereo not drawn) do in these assays?
KCNQ2 block: inactive; KCNQ2 block baseline: -0.2

Results for COC(=O)c1ccc(NC(=O)Cc2ccc(C)cc2)cc1 ?
KCNQ2 block: inactive; KCNQ2 block baseline: -1.27

Results for Cc1ccccc1NC(=O)COC(=O)C1C2CC3OC(=O)C1C3C2 (stereo not drawn) ?
KCNQ2 block: inactive; KCNQ2 block baseline: 1.91

Results for O=C(NC(=S)NC1CCN(Cc2ccccc2)CC1)c1ccc(F)cc1 ?
KCNQ2 block: inactive; KCNQ2 block baseline: 0.85

How did O=C(Nc1ccccc1)c1ccc2nsnc2c1 do in these assays?
KCNQ2 block: inactive; KCNQ2 block baseline: -1.6

Results for CCCOc1ccc(C(=O)c2ccccc2C(=O)O)cc1OCCC ?
KCNQ2 block: inactive; KCNQ2 block baseline: 0.89

How did COc1nccnc1NS(=O)(=O)c1ccc(NCc2cc(Br)ccc2O)cc1 do in these assays?
KCNQ2 block: inactive; KCNQ2 block baseline: -0.03

Results for Cc1ccc(NC(=O)c2nc[nH]c2C(=O)Nc2ccc(C)cc2)cc1 ?
KCNQ2 block: inactive; KCNQ2 block baseline: -0.72

How did CCOc1ccc(NC(=O)CN(C)C(=O)c2ccncc2)cc1OCC do in these assays?
KCNQ2 block: inactive; KCNQ2 block baseline: 0.2

What do the screens show for `Cc1ccc(Sc2nc(C)c([N+](=O)[O-])c(C)c2C#N)cc1`?
KCNQ2 block: inactive; KCNQ2 block baseline: 1.16

How did CCCCn1c(N)c(N(CC(C)C)C(=O)CSc2ccc([N+](=O)[O-])cc2)c(=O)[nH]c1=O do in these assays?
KCNQ2 block: inactive; KCNQ2 block baseline: -0.12

How did Cc1ccc(CS(=O)(=O)CCC(=O)NCCCN2CCCC2)cc1 do in these assays?
KCNQ2 block: inactive; KCNQ2 block baseline: 3.45

How did Cc1ccc2occ(/C=N/NC(=O)[C@@H](N)Cc3ccccc3)c(=O)c2c1 do in these assays?
KCNQ2 block: inactive; KCNQ2 block baseline: 0.26

How did CCOC(=O)c1ccc(NC(=O)c2cn(CCC#N)nc2-c2ccc3c(c2)OCCO3)cc1 do in these assays?
KCNQ2 block: inactive; KCNQ2 block baseline: -0.74

Results for COC(=O)c1cccc(NC(=O)CN2CCC(NC(=O)c3cc(OC)c(OC)c(OC)c3)CC2)c1 ?
KCNQ2 block: inactive; KCNQ2 block baseline: -1.82

What do the screens show for `O=C(NCc1cccnc1)c1ccc(Cl)cc1[N+](=O)[O-]`?
KCNQ2 block: inactive; KCNQ2 block baseline: -0.04

Results for COc1ccc(/C(C)=N/N=C(N)N)c(O)c1 ?
KCNQ2 block: inactive; KCNQ2 block baseline: -0.69

Molecules above that contain a cyano group (two):
What do the screens show for `Cc1ccc(Sc2nc(C)c([N+](=O)[O-])c(C)c2C#N)cc1`?
KCNQ2 block: inactive; KCNQ2 block baseline: 1.16

How did CCOC(=O)c1ccc(NC(=O)c2cn(CCC#N)nc2-c2ccc3c(c2)OCCO3)cc1 do in these assays?
KCNQ2 block: inactive; KCNQ2 block baseline: -0.74

Back to the main list, repeating the four entries before the break.
How did CCOC(=O)c1ccc(NC(=O)c2cn(CCC#N)nc2-c2ccc3c(c2)OCCO3)cc1 do in these assays?
KCNQ2 block: inactive; KCNQ2 block baseline: -0.74

Results for COC(=O)c1cccc(NC(=O)CN2CCC(NC(=O)c3cc(OC)c(OC)c(OC)c3)CC2)c1 ?
KCNQ2 block: inactive; KCNQ2 block baseline: -1.82

What do the screens show for `O=C(NCc1cccnc1)c1ccc(Cl)cc1[N+](=O)[O-]`?
KCNQ2 block: inactive; KCNQ2 block baseline: -0.04

Results for COc1ccc(/C(C)=N/N=C(N)N)c(O)c1 ?
KCNQ2 block: inactive; KCNQ2 block baseline: -0.69

What do the screens show for `O=C(COc1coc(CN2CCN(c3ccccc3)CC2)cc1=O)NC1CCCCC1`?
KCNQ2 block: inactive; KCNQ2 block baseline: 0.19

Results for COc1ccc(CC(C)Nc2cccc(SC)c2)cc1 (stereo not drawn) ?
KCNQ2 block: inactive; KCNQ2 block baseline: 0.67

How did Cc1cc(C)c2c(c1)cc(C)c1nnc(SCC(=O)Nc3ccc(S(=O)(=O)N4CCCCC4)cc3)n12 do in these assays?
KCNQ2 block: inactive; KCNQ2 block baseline: 2.6

Results for O=C(Nc1cccc(Cl)c1)Nc1nccs1 ?
KCNQ2 block: inactive; KCNQ2 block baseline: 1.85

What do the screens show for `O=C(Cn1cccc1C(=O)c1ccccc1)NCc1cccs1`?
KCNQ2 block: inactive; KCNQ2 block baseline: 0.44

Results for S=C(NCc1cccnc1)c1ccccc1 ?
KCNQ2 block: inactive; KCNQ2 block baseline: 2.11

What do the screens show for `CCOC(=O)c1nnn(-c2nonc2N)c1CN(CC)c1ccccc1`?
KCNQ2 block: inactive; KCNQ2 block baseline: -0.24

What do the screens show for `CCc1ccccc1NC(=O)c1ccc2nc(N3CCOCC3)sc2c1`?
KCNQ2 block: inactive; KCNQ2 block baseline: -0.41

Results for COc1ccc(CC(=O)OCC(=O)Nc2ccc3[nH]c(=O)[nH]c3c2)cc1 ?
KCNQ2 block: inactive; KCNQ2 block baseline: -0.18

How did CN(C)CCCN1C(=O)C(=O)/C(=C(/O)c2ccncc2)C1c1cccc(Br)c1 (stereo not drawn) do in these assays?
KCNQ2 block: inactive; KCNQ2 block baseline: 0.43

Results for CCOc1ccc(CCNC(=O)C2CC(=O)N(CCc3ccc(OC)c(OC)c3)C2)cc1OCC (stereo not drawn) ?
KCNQ2 block: inactive; KCNQ2 block baseline: -2.19

How did COc1ccc(N2CCOCC2)c(NC(=O)c2ccc(Br)o2)c1 do in these assays?
KCNQ2 block: inactive; KCNQ2 block baseline: -2.45

Results for OCC(Cc1ccc2c(c1)OCO2)C(CO)Cc1ccc2c(c1)OCO2 (stereo not drawn) ?
KCNQ2 block: inactive; KCNQ2 block baseline: -0.13

What do the screens show for `COc1ccc(NC(=O)c2oc3ccccc3c2C)c(OC)c1`?
KCNQ2 block: inactive; KCNQ2 block baseline: 0.36

How did CCOc1ccccc1NC(=O)CSc1nnc(Cc2cccn2C)n1-c1ccc(F)cc1 do in these assays?
KCNQ2 block: inactive; KCNQ2 block baseline: -0.41

How did O=C(/C(=C/c1ccc(Cl)cc1)c1nc2ccccc2[nH]1)c1ccccc1 do in these assays?
KCNQ2 block: inactive; KCNQ2 block baseline: -0.68

Results for CCOC(=O)c1cc(C)sc1NC(=O)CSC1=NCCS1 ?
KCNQ2 block: inactive; KCNQ2 block baseline: -2.04

How did Cc1nc(N=C(N)N)nc2ccccc12 do in these assays?
KCNQ2 block: inactive; KCNQ2 block baseline: 1.44

How did COC(=O)C(NC(=O)c1ccco1)(Nc1nc(C2CC2)cs1)C(F)(F)F (stereo not drawn) do in these assays?
KCNQ2 block: inactive; KCNQ2 block baseline: -0.95

What do the screens show for `O=C(O)c1ccc(COc2ccc3ccccc3c2/C=C2/NC(=O)N(c3ccccc3)C2=O)cc1`?
KCNQ2 block: inactive; KCNQ2 block baseline: -0.38

What do the screens show for `CN1CC2(C(=O)c3ccccc3)CN(C)CC(C(=O)c3ccccc3)(C1)C2`?
KCNQ2 block: inactive; KCNQ2 block baseline: -1.94

How did O=C(CCCOc1ccccc1)N1CCCc2ccccc21 do in these assays?
KCNQ2 block: inactive; KCNQ2 block baseline: 1.44

What do the screens show for `O=C(Nc1ccc2c(c1)Cc1ccccc1-2)c1ccc(Br)o1`?
KCNQ2 block: inactive; KCNQ2 block baseline: -0.11

Results for Cc1ccc(/C(O)=C2\C(=O)C(=O)N(C)C2c2ccc(Br)cc2)cc1 (stereo not drawn) ?
KCNQ2 block: inactive; KCNQ2 block baseline: -0.12

Results for Cc1cccc(-n2nnc(C(=O)NCc3ccccc3)c2N)c1 ?
KCNQ2 block: inactive; KCNQ2 block baseline: 1.38

How did COc1ccc(CCNC(=O)C(=O)NCC2OCCN2S(=O)(=O)c2cc(F)ccc2F)cc1 (stereo not drawn) do in these assays?
KCNQ2 block: inactive; KCNQ2 block baseline: -0.45

Results for Cc1cc2c(c(=O)n1CCN(C)C)C(c1ccc(Br)cc1)C(C#N)=C(N)O2 (stereo not drawn) ?
KCNQ2 block: inactive; KCNQ2 block baseline: -0.2

How did CC(=O)N1CCN(S(=O)(=O)c2cccc(C(=O)OCN3C(=O)c4ccccc4C3=O)c2)CC1 do in these assays?
KCNQ2 block: inactive; KCNQ2 block baseline: -0.68

What do the screens show for `Cc1ccc(C(=O)NC2CCS(=O)(=O)C2)cc1S(=O)(=O)N1CCCC1` (stereo not drawn)?
KCNQ2 block: inactive; KCNQ2 block baseline: -0.3

What do the screens show for `CCOC(=O)C1CCCc2c1[nH]c1ccc(Cl)cc21` (stereo not drawn)?
KCNQ2 block: inactive; KCNQ2 block baseline: -1.4

How did Cc1ccc(O)c(NC(=O)c2cc3nc4c(c(C(F)(F)F)n3n2)CCc2ccccc2-4)c1 do in these assays?
KCNQ2 block: inactive; KCNQ2 block baseline: -0.03

How did Cc1ccccc1CN(C)CC(=O)Nc1ccccc1Oc1ccccc1 do in these assays?
KCNQ2 block: -7.46*; KCNQ2 block baseline: 0.13*

Results for CN(C)S(=O)(=O)c1cccc(C(=O)Nc2ccccc2)c1 ?
KCNQ2 block: inactive; KCNQ2 block baseline: 1.23

What do the screens show for `O=c1c2ccccc2c(C=NC2CCN(Cc3ccccc3)CC2)c(O)n1Cc1ccc2c(c1)OCO2`?
KCNQ2 block: inactive; KCNQ2 block baseline: 0.84

How did CCCN1C(=O)/C(=C/c2c(NCCCOC(C)C)nc3c(C)cccn3c2=O)SC1=S do in these assays?
KCNQ2 block: inactive; KCNQ2 block baseline: 5.13

Results for CCC(C)c1ccc(OCC(=O)Nc2ccc(Cl)cn2)cc1 (stereo not drawn) ?
KCNQ2 block: inactive; KCNQ2 block baseline: -0.05

How did Cc1ccc2cc(C)c(SCC#N)nc2c1 do in these assays?
KCNQ2 block: inactive; KCNQ2 block baseline: 0.65

How did CCOc1ccccc1NC(=O)C1=C(C)NC(=O)NC1c1cccc(OC)c1OC (stereo not drawn) do in these assays?
KCNQ2 block: inactive; KCNQ2 block baseline: -0.5

What do the screens show for `CCN(CC)S(=O)(=O)c1ccc(/C=C/C(=O)N(c2ccccn2)C2CCCCC2)cc1`?
KCNQ2 block: inactive; KCNQ2 block baseline: -0.16

What do the screens show for `CCOc1ccc(C(=O)Nc2ccc(CN3CCOCC3)cc2)cc1Cl`?
KCNQ2 block: inactive; KCNQ2 block baseline: 0.12

Results for COC(=O)c1ccccc1Sc1snnc1C ?
KCNQ2 block: inactive; KCNQ2 block baseline: 0.61

Results for C=CCc1cccc(/C=N/NC(=O)C[n+]2ccccc2)c1O ?
KCNQ2 block: inactive; KCNQ2 block baseline: -0.17

How did Cc1csc(Nc2nc(N)c(C(=O)Nc3ccccc3)o2)n1 do in these assays?
KCNQ2 block: inactive; KCNQ2 block baseline: 1.61

What do the screens show for `COc1ccc(N2CCN(c3oc(-c4ccc(OC)c(OC)c4)nc3C#N)CC2)cc1`?
KCNQ2 block: inactive; KCNQ2 block baseline: -0.64

What do the screens show for `O=C(Nc1ccccc1C(=O)NCCCn1ccnc1)c1ccccc1`?
KCNQ2 block: inactive; KCNQ2 block baseline: 2.2

Results for COc1ccccc1CNC(=O)c1cc2ccccc2o1 ?
KCNQ2 block: inactive; KCNQ2 block baseline: 0.22

How did Cc1ccc(/C=N/Nc2nnc(Cl)c3ccccc23)cc1 do in these assays?
KCNQ2 block: inactive; KCNQ2 block baseline: 0.1

Results for COc1nc(-c2ccccc2)ccc1-c1noc(-c2cccnc2)n1 ?
KCNQ2 block: inactive; KCNQ2 block baseline: 0.07

Results for CCCCn1c(N)c(N(CCOC)C(=O)C2CCN(S(=O)(=O)c3ccc(C)c(C)c3)CC2)c(=O)[nH]c1=O ?
KCNQ2 block: inactive; KCNQ2 block baseline: 1.69

What do the screens show for `COc1ccccc1C(=O)NCCC(=O)N(Cc1ccco1)Cc1cccs1`?
KCNQ2 block: inactive; KCNQ2 block baseline: 0.07

What do the screens show for `CCOC(=O)CSc1nc(COc2ccccc2)nc2ccccc12`?
KCNQ2 block: inactive; KCNQ2 block baseline: 0.84

What do the screens show for `CSC1=N/C(=C\c2ccc(F)cc2)C(=O)S1`?
KCNQ2 block: inactive; KCNQ2 block baseline: -1.17

What do the screens show for `CCc1noc(C)c1C(=O)Nc1cc(S(=O)(=O)N2CCOCC2)ccc1OC(C)C`?
KCNQ2 block: inactive; KCNQ2 block baseline: 0.05

Results for O=C(Cn1c(=O)n(CC(=O)N2CCCCC2)c(=O)c2sccc21)NCc1ccccc1 ?
KCNQ2 block: inactive; KCNQ2 block baseline: -1.3

What do the screens show for `COc1ccccc1CNc1ccc(N2CCCCC2)cc1`?
KCNQ2 block: inactive; KCNQ2 block baseline: 0.9

Reprinted at random: 4 compounds from above.
How did Cc1csc(Nc2nc(N)c(C(=O)Nc3ccccc3)o2)n1 do in these assays?
KCNQ2 block: inactive; KCNQ2 block baseline: 1.61

What do the screens show for `COc1ccccc1C(=O)NCCC(=O)N(Cc1ccco1)Cc1cccs1`?
KCNQ2 block: inactive; KCNQ2 block baseline: 0.07

Results for CCCCn1c(N)c(N(CCOC)C(=O)C2CCN(S(=O)(=O)c3ccc(C)c(C)c3)CC2)c(=O)[nH]c1=O ?
KCNQ2 block: inactive; KCNQ2 block baseline: 1.69

What do the screens show for `CSC1=N/C(=C\c2ccc(F)cc2)C(=O)S1`?
KCNQ2 block: inactive; KCNQ2 block baseline: -1.17

Arranged by heavy-atom count (smallest number first): some entries from above.
Results for COC(=O)c1ccccc1Sc1snnc1C ?
KCNQ2 block: inactive; KCNQ2 block baseline: 0.61

Results for COc1ccccc1CNC(=O)c1cc2ccccc2o1 ?
KCNQ2 block: inactive; KCNQ2 block baseline: 0.22

Results for COc1nc(-c2ccccc2)ccc1-c1noc(-c2cccnc2)n1 ?
KCNQ2 block: inactive; KCNQ2 block baseline: 0.07
